Screens: PubChem, ICCB-Longwood Screening Facility, Harvard Medical School
KSHV LANA nucl: inhibitors of KSHV LANA binding to nucleosomes; FITC-LANA1-23 / chicken nucleosome fluorescence polarization; active compounds read low; actives 0.3% (n = 51,000); z-score (no concentration beside the values);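 active means both repeat wells score below -2 in polarization z-score versus plate sample wells, excluding overly bright wells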;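 further: 100 nL library stock added to about 30 µL; numbers are from one replicate; some results filed as inactive read as strong as hits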
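test system = FITC-LANA peptide and chicken nucleosomes | amount = 240 nM purified chicken nucleosomes (480 nM peptide binding sites), final | reagent = 50 nM FITC-LANA1-23 probe | medium = TEN-BT buffer, pH 7.5 | doses = single compound addition by pin transfer, 100 nL per well | timing = 10–45 min, room temperature | detection = fluorescence polarization | repeats = duplicate plates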
BasE inh: inhibitors of Acinetobacter baumannii siderophore enzyme BasE | purified BasE, fluorescence polarization binding displacement | inhibition, % (no concentration beside the values) | actives 0.1% (n = 84,000);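 active means both replicates above 25% with normal brightness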;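 further: 0% = negative plate control signal and 100% = positive plate control signal; stock transfer was 100 nL into about 30 µL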
Starred values were filed as active, the others as inactive. These rows are one share of the data. The share of hits here may be higher or lower than overall.

`Cc1ccc(NC(=O)Cc2nc(CSc3nnc(-c4ccc5c(c4)OCO5)o3)cs2)cc1` gave BasE inh 0.0.
`O=C1NC(=S)S/C1=C\c1ccc(-c2ccc(S(=O)(=O)N3CCOCC3)cc2)o1` gave BasE inh -1.1.
For O=C(c1ccco1)N1CCN(C(=O)c2ccc(CS(=O)c3ccc(Br)cc3)o2)CC1 (stereo not given) the results were KSHV LANA nucl 0.083 and BasE inh -2.4.
C#CC(CCN1CCCCC1)(OC)c1ccccc1 (stereo not given) was read as KSHV LANA nucl 0.11 and BasE inh -3.2.
`CCS(=O)(=O)Nc1cccc(C(=O)CC2(O)C(=O)Nc3ccc(Br)cc32)c1` (stereo not given) gave KSHV LANA nucl -0.96 and BasE inh 1.6.
Screening CCc1ccc(C2C(C#N)=C(N)Oc3cc4c(cc32)OCO4)cc1 (stereo not given) returned BasE inh 0.2.
O=C1S/C(=C/c2ccccc2F)C(=O)N1CNc1ccccc1 was read as KSHV LANA nucl -0.16 and BasE inh -1.6.
`COc1ccnc(N)c1C#N` gave KSHV LANA nucl -1.4.
Screening CC1(C)CN=C(N(C(=O)Nc2cccc(Cl)c2)C2CCCCC2)S1 returned KSHV LANA nucl -0.65 and BasE inh 1.4.
`CCSCC(=O)N1CCN(c2nnc(-c3ccccc3)c3ccccc23)CC1` gave KSHV LANA nucl 1.2 and BasE inh -1.9.
`O=C(COC(=O)Cn1cnc2ccccc21)NCC1CCCO1` (stereo not given) gave BasE inh 0.7.
`OCCN(CCO)CC(O)Cn1c2ccc(Br)cc2c2cc(Br)ccc21` (stereo not given) gave KSHV LANA nucl -0.21 and BasE inh 0.1.
Screening Cc1nn(C)c(C)c1/C=C/C(=O)O returned BasE inh 5.3.
COC(=O)c1sc2cc(OC)ccc2c1Cl was read as KSHV LANA nucl 3.1 and BasE inh -2.4.
`CCN(CC)c1ccc(/C=C2/C(=O)NN(c3ccc(C)cc3)C2=O)cc1` gave BasE inh -0.4.
Screening COC(=O)c1ccc(-c2ccco2)n1CC(=O)N1CCC(Cc2ccccc2)CC1 returned KSHV LANA nucl -0.68 and BasE inh 4.6.
For CC(=O)N(Cc1ccccc1)Cc1cc2ccc(C)cc2[nH]c1=O the results were KSHV LANA nucl 0.041 and BasE inh 1.0.
CC(=O)Nc1ccc(SC(C)c2nc3ccccc3c(=O)[nH]2)cc1 (stereo not given) was read as BasE inh -0.5.
For O=C(NCC(=O)N1CCN(S(=O)(=O)/C=C/c2ccccc2)CC1)c1ccccc1F the results were BasE inh 2.6.
CC(=O)N1CC2(NC(=O)c3ccccc3N2)c2ccccc21 (stereo not given) was read as BasE inh -0.5.
For O=S(=O)(c1ccccc1F)N(Cc1ccco1)Cc1nnc(-c2ccc(Cl)cc2)o1 the results were BasE inh -1.9.
`COc1nc(N(C)C)nc(N(CN2C(=O)c3ccccc3C2=O)S(=O)(=O)c2ccc(C)cc2)n1` gave KSHV LANA nucl -0.76 and BasE inh 2.4.
COc1ccc(N2CCN(C(=O)COC(=O)C3CC4CCCC(C3)C4=O)CC2)cc1 (stereo not given) was read as BasE inh -0.8.
Screening O=C1C2C3C=CC(C3)C2C(=O)N1c1ccncc1 (stereo not given) returned KSHV LANA nucl -0.13 and BasE inh 5.4.
`Cc1cccc(NC(=O)CC23CC4CC(C2)CC(n2nnc(C)n2)(C4)C3)c1` gave KSHV LANA nucl -0.27 and BasE inh 1.0.
CCN1C(=O)/C(=C/c2ccccc2)N(C)C1=S was read as KSHV LANA nucl -0.025 and BasE inh 0.9.
Screening CCC(=O)Nc1cc2c(C)cc(=O)oc2cc1C returned BasE inh 1.6.
CC(Nc1ccccc1)C(=O)O (stereo not given) was read as BasE inh 1.8.
Screening CCOc1ncccc1C(=O)N1CCSC1=NCCc1ccccc1 returned BasE inh 1.6.
For N#CCCN(Cc1ccccc1)C(=O)Nc1ccc2c(c1)CCO2 the results were KSHV LANA nucl -0.25 and BasE inh 2.9.
Screening COc1ccc(N2CC(c3ccc(F)cc3)=CC2=O)cc1 returned KSHV LANA nucl 0.93.
Screening CCN1C(=O)c2ccc(C(=O)c3ccc(C(=O)O)cc3)cc2C1=O returned KSHV LANA nucl -0.15 and BasE inh 1.4.
O=C(Cn1cc(Br)ccc1=O)c1ccc2c(c1)OCCO2 was read as BasE inh 0.4.
For CC(=O)Nc1ccc(Br)c(C(F)(F)F)c1 the results were BasE inh 2.3.
CSc1cc(-c2ccc(F)cc2)nn1S(=O)(=O)c1ccc(C)cc1 was read as BasE inh 0.2.
Screening FC(F)(F)c1nc(NCc2ccco2)nc2c1CCCCC2 returned KSHV LANA nucl -0.65 and BasE inh -0.3.
`COc1cccc(Nc2cc(C)nc3ccccc23)c1` gave KSHV LANA nucl 0.44 and BasE inh -2.9.
Screening COc1ccc(Cl)cc1NC(=O)C(OC)c1ccccc1 (stereo not given) returned KSHV LANA nucl -0.21 and BasE inh -3.6.
For CC(C)Cn1ncc(=O)n(CC(C)C)c1=O the results were KSHV LANA nucl 0.39 and BasE inh 4.3.
`CCC(=O)Nc1nc(-c2ccccn2)cs1` gave KSHV LANA nucl 0.64 and BasE inh -0.7.
Cc1ccc(C)c(N2CCN(C3CCCCCCC3)CC2)c1 was read as KSHV LANA nucl -0.44 and BasE inh 1.3.
For CCOC(=O)CC1C(=O)NCCN1C(=O)c1ccccc1 (stereo not given) the results were KSHV LANA nucl -0.78.
CCOC(=O)c1sc(Nc2ccccc2C(F)(F)F)c(C(=O)OCC)c1N was read as BasE inh 1.0.
O=C(CSc1nn2cnnc2s1)N1CCCC1 was read as KSHV LANA nucl -0.024 and BasE inh -0.3.
COc1ccc2oc(-c3ccco3)cc(=O)c2c1 was read as KSHV LANA nucl -0.86 and BasE inh 1.6.
Screening Cn1c(-c2ccc(Br)cc2)cnc1SCC(=O)N1CCNC1=O returned BasE inh -0.8.
c1nnc(NC2=NCCCCC2)s1 was read as BasE inh 2.0.
`COc1ccc(C(=O)Nc2ccc(N3CCCCC3)cc2)cc1` gave BasE inh 1.1.
`Cn1cccc1C(=O)OCC(=O)c1ccc(Br)cc1` gave BasE inh -1.7.
COc1ccccc1N=Nc1[nH]c2ccc(C)cc2c1O was read as KSHV LANA nucl 0.089 and BasE inh -1.9.
Screening CC(C)(C)NC(=O)c1ccc2c(c1)C(=O)N(Cc1ccco1)C2=O returned KSHV LANA nucl 0.042 and BasE inh 0.2.
Screening Cc1ccccc1C(=O)Nc1ccc(-c2ccc3nncn3n2)cc1 returned KSHV LANA nucl 0.084 and BasE inh 0.3.
For CCN1C(=O)c2ccccc2S(=O)c2ccc(C(=O)NCCC3=CCCCC3)cc21 (stereo not given) the results were KSHV LANA nucl -0.97 and BasE inh -3.1.
For COc1ccc(-n2c(O)c(C=NCC(C)(C)N3CCOCC3)c3ccccc3c2=O)cc1OC the results were BasE inh 1.6.
Screening CNCC12CC3CC(CC(C3)C1)C2 returned KSHV LANA nucl 3 and BasE inh -2.0.
Screening Cc1sc2ncnc(NCc3ccccn3)c2c1C returned BasE inh 1.1.
Screening CC1(CCc2ccccc2)NC(=O)N(NC(=O)COc2ccc(C#N)cc2)C1=O (stereo not given) returned BasE inh -0.8.
CCOc1ccc(C(=O)CCC(=O)N2CCNC(=O)C2)cc1 was read as BasE inh 1.0.
For Cc1cc2nnc(C(=O)/C=C/N(C)C)c(C)n2n1 the results were KSHV LANA nucl -1 and BasE inh 2.3.
O=C(Nc1ccccc1C(=O)O)OCC1c2ccccc2-c2ccccc21 was read as BasE inh -2.3.

Of the compounds above, four have a COOH group.
Screening Cc1nn(C)c(C)c1/C=C/C(=O)O returned BasE inh 5.3.
CC(Nc1ccccc1)C(=O)O (stereo not given) was read as BasE inh 1.8.
Screening CCN1C(=O)c2ccc(C(=O)c3ccc(C(=O)O)cc3)cc2C1=O returned KSHV LANA nucl -0.15 and BasE inh 1.4.
O=C(Nc1ccccc1C(=O)O)OCC1c2ccccc2-c2ccccc21 was read as BasE inh -2.3.

More entries:
For CCOC(=O)C1CCN(c2ncnc3c2cnn3C)CC1 the results were KSHV LANA nucl -1.3 and BasE inh 0.8.
For CCN=C1S/C(=C/c2cn(CC(=O)Nc3ccccc3)c3ccccc23)C(=O)N1CC the results were KSHV LANA nucl 0.77 and BasE inh 0.6.
[O-][N+]12CC[N+]([O-])(CC1)c1ccccc12 was read as KSHV LANA nucl 0.089 and BasE inh 0.9.
Screening CNC(=O)NC(=O)CSc1ccc(NC(C)=O)cc1 returned BasE inh 0.3.
CCOC(=O)C1=C(c2ccccc2)Nc2nnnn2C1c1ccc(Br)cc1 (stereo not given) was read as BasE inh 0.1.
For S=c1[nH]nc(C23CC4CC(CC(C4)C2)C3)o1 the results were BasE inh 0.9.
O=C(CC1(O)C(=O)N(CCc2ccccc2)c2ccc(Br)cc21)c1ccco1 (stereo not given) was read as KSHV LANA nucl 0.4 and BasE inh -1.4.
`ONc1nc2ccccc2nc1NO` gave KSHV LANA nucl 2.4 and BasE inh 11.
`CN(C)c1nc(N(C)C)n(-c2ccccc2)n1` gave KSHV LANA nucl -0.23.
CCOc1ccc(-n2c(-c3ccccc3)c[n+]3c2CCC3)cc1 was read as BasE inh -3.7.
Screening Cn1ccnc1SC(C(=O)Nc1ccccc1)C(=O)Nc1ccccc1 returned KSHV LANA nucl 0.13 and BasE inh 0.8.
`O=C(c1ccc2c(c1)N(Cc1ccccc1)C(=O)c1ccccc1S2=O)N1CCOCC1` (stereo not given) gave KSHV LANA nucl -0.74 and BasE inh -1.1.
Screening CC1Cc2cc(C(=O)COC(=O)c3n[nH]c(=O)c4ccccc34)ccc2N1S(C)(=O)=O (stereo not given) returned BasE inh 1.5.
Screening O=C(Nc1nccs1)c1ccc2c(=O)n3c(nc2c1)CCCCC3 returned BasE inh 0.8.
Screening CN(C)C(=O)c1ccccc1NC(=O)Nc1ccccc1 returned KSHV LANA nucl -0.13 and BasE inh -1.4.
`O=C(c1ccccc1)N(c1ccc2oc3c(c2c1)CCCC3)S(=O)(=O)c1ccccc1` gave BasE inh 1.4.
`O=C(CSc1nc2c(c(=O)n1-c1ccccc1)SCC2)Nc1nccs1` gave KSHV LANA nucl 3.3 and BasE inh 0.3.
Screening CC1N(C)c2cc(CN3C(=O)c4ccccc4C3=O)ccc2C1(C)C (stereo not given) returned BasE inh 0.5.
For O=C(Nc1ncnc2sccc12)c1cccs1 the results were KSHV LANA nucl 0.45 and BasE inh -1.4.
CC(OC(=O)C(C)N1C(=O)c2ccccc2C1=O)C(=O)c1ccccc1 (stereo not given) was read as KSHV LANA nucl 0.63 and BasE inh 0.4.
Screening C=CCNC(=O)c1ccc(Cl)c(Cl)c1 returned KSHV LANA nucl 1.2 and BasE inh -3.2.
`CC(C)COC(=O)Cc1c(O)c2ccccc2[nH]c1=O` gave KSHV LANA nucl 0.12 and BasE inh 0.3.
For CCC(=O)Nc1cc(C(=O)NCC2CCCN2CC)c(OC)cc1N(C)C (stereo not given) the results were KSHV LANA nucl 0.53 and BasE inh -0.2.
Screening O=C1c2ccccc2C(=O)N1CSC1=NCCS1 returned KSHV LANA nucl 0.23 and BasE inh -0.8.
For COc1ccc(NC(=O)OCC(C)C)cc1OC the results were KSHV LANA nucl -0.25 and BasE inh 1.7.
For Cc1ccc(/C=C/C(=O)NCCc2c[nH]c3ccccc23)o1 the results were BasE inh 0.2.
`O=S(=O)(NCC(c1ccco1)S(=O)(=O)c1ccccc1)c1ccccc1` (stereo not given) gave KSHV LANA nucl -0.65 and BasE inh 0.7.
Cc1ccc(C(=O)OC2=C(c3ccccc3)C(=O)c3ccccc3C2=O)cc1 was read as BasE inh 2.4.
Cc1ccc(Cc2nn3c(C(=O)c4cccs4)nn(-c4ccc(Cl)cc4)c3nc2=O)cc1 was read as BasE inh 0.5.
For CC1SCC(NC(=O)c2ccc(Cl)cc2)CS1 (stereo not given) the results were KSHV LANA nucl 1.9 and BasE inh -0.7.

6 records picked at random from the list so far:
Cc1ccc(C(=O)OC2=C(c3ccccc3)C(=O)c3ccccc3C2=O)cc1 was read as BasE inh 2.4.
`O=C(CSc1nc2c(c(=O)n1-c1ccccc1)SCC2)Nc1nccs1` gave KSHV LANA nucl 3.3 and BasE inh 0.3.
For CCC(=O)Nc1cc(C(=O)NCC2CCCN2CC)c(OC)cc1N(C)C (stereo not given) the results were KSHV LANA nucl 0.53 and BasE inh -0.2.
Screening C=CCNC(=O)c1ccc(Cl)c(Cl)c1 returned KSHV LANA nucl 1.2 and BasE inh -3.2.
CC(OC(=O)C(C)N1C(=O)c2ccccc2C1=O)C(=O)c1ccccc1 (stereo not given) was read as KSHV LANA nucl 0.63 and BasE inh 0.4.
Screening CC1N(C)c2cc(CN3C(=O)c4ccccc4C3=O)ccc2C1(C)C (stereo not given) returned BasE inh 0.5.

Continuation.
CN(C)c1ccc(/C=C/C(=O)/C=C/c2ccco2)cc1 was read as KSHV LANA nucl 4.6 and BasE inh -50.
For C=CCNC(=O)c1cc(C)nc2ccccc12 the results were BasE inh 0.7.
Screening Cc1ccc(S(=O)(=O)NC2c3ccccc3Oc3ccccc32)cc1 returned BasE inh -2.5.
`CC(C)C(=O)Nc1sc2c(c1C(=O)OCc1nnc3n(C)c(=O)c4ccccc4n13)CCC2` gave BasE inh 0.5.
`CC1CCCC(C)N1NC(=O)Cc1ccccc1` (stereo not given) gave BasE inh 2.6.
For S=C(NCc1ccccc1)N/N=C/c1ccccn1 the results were BasE inh 1.0.
For COC(=O)CN1C(=O)Cc2ccccc2C1=O the results were KSHV LANA nucl -2.
